Source: PubChem (ICCB-Longwood Screening Facility, Harvard Medical School)
KSHV LANA nucl: LANA-nucleosome interaction inhibition; FITC-LANA1-23 / chicken nucleosome fluorescence polarization; hits give low values; z-score (concentration not given with the values); 51,000 tested, 0.3% active; AID 720717;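 active means both repeat wells score below -2 in polarization z-score versus plate sample wells, excluding overly bright wells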;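 further: 100 nL library stock added to about 30 µL; numbers are from one replicate; some results filed as inactive read as strong as hits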
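test system = FITC-LANA peptide and chicken nucleosomes | amount = 240 nM purified chicken nucleosomes (480 nM peptide binding sites), final | reagent = 50 nM FITC-LANA1-23 probe | medium = TEN-BT buffer, pH 7.5 | doses = single compound addition by pin transfer, 100 nL per well | timing = 10–45 min, room temperature | detection = fluorescence polarization | repeats = duplicate plates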
BasE inh: inhibitors of Acinetobacter baumannii siderophore enzyme BasE | purified BasE, fluorescence polarization binding displacement | inhibition, % (no concentration beside the values) | 84,000 tested, 0.1% active;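 active means both replicates above 25% with normal brightness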;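 further: 0% = negative plate control signal and 100% = positive plate control signal; stock transfer was 100 nL into about 30 µL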
An asterisk follows results filed as active; . = not tested or not shown; & = joins results of further samples. Only part of the results is shown (hit frequency here may not be typical).

SMILES | KSHV LANA nucl | BasE inh
CCn1c(SC)nnc1C1CCN(C(=O)C(OC)c2ccccc2)CC1 (stereo not given) | -0.559 | 0.5
CCOC(=O)Cc1csc(NC(=O)CSc2nccn2C)n1 | -0.264 | 13.5
O=C1CCN(C(=O)c2ccccc2)C2CCCCC12 (stereo not given) | 0.431 | 2.7
C=C(C)C(=O)NNc1ccccc1 | . | 0.8
CC1CCN(C(=O)c2cc(=O)[nH]c3ccccc23)CC1 | . | 1.1
CC(Oc1ccc(C(C)(C)C)cc1)C(=O)NCC1CCCO1 (stereo not given) | -1.27 | 3.5
CC(C)Oc1cccc(C(=O)NC(C)(C)C)c1 | 1.52 | -1.0
CC1=C(C)C(=O)N(c2ccccn2)C1=O | 0.478 | -0.9
N#Cc1ccccc1NC(=S)NC(=O)c1cc(-c2ccco2)nc2ccccc12 | . | -0.8
Cc1ccc(N(C(=O)Cn2nnc(-c3ccc(C)o3)n2)C(C(=O)NC2CCCCC2)c2ccc(F)cc2)c(C)c1 (stereo not given) | 0.835 | -2.1
CC1=C(C)C(=O)C(NCC2CCCO2)=CC1=O (stereo not given) | . | 1.6
Cc1cc(C)cc(OC2CCCCC2NS(=O)(=O)c2ccc(Cl)cc2)c1 (stereo not given) | . | 3.0
COc1cccc(OCCn2cc(C(=O)c3cccs3)c3ccccc32)c1 | -0.823 | 0.1
COc1ccc(-c2cc(C(=O)O)c(C)o2)cc1OC | -1.15 | 2.3
Cc1sc2nc(N)sc(=O)c2c1C | . | -0.3
Cc1ccc(-n2nc(C)c(/C=N/N3CCOCC3)c2Cl)cc1 | . | 3.2
O=C(NCc1ccccc1)N1CCn2cccc2C1Cc1ccccc1 (stereo not given) | -0.39 | -1.6
CN(c1ccccc1)C1CCCCC1NS(=O)(=O)c1ccccc1 (stereo not given) | -1.52 | 1.6
NNC(=O)COc1ccc2oc3c(c2c1)CCCC3 | . | 1.0
COc1ccc(NCC(O)Cn2c3ccc(Cl)cc3c3cc(Cl)ccc32)c(OC)c1 (stereo not given) | . | 1.0
O=C(Nc1ccc(N2CCOCC2)cc1)C1=NCCN1 | . | 1.6
CCCN(CCC)S(=O)(=O)c1ccc(C(=O)NN)cc1 | . | 0.9
CC(C)(C)NC(N)=S | . | 2.6
Cc1cc(C(=O)OC(C)C(=O)Nc2ccc(Cl)cn2)c(C)o1 (stereo not given) | . | -0.9
C(=N\c1c(-c2ccccc2)nc2n1CCS2)/c1ccccc1 | -0.5 | 4.2
CCCCNC(=O)Nc1ccn(C)n1 | 0.109 | 1.2
O=C(CSc1nnc(-c2ccncc2)o1)N1c2ccccc2Sc2ccccc21 | . | 3.0
N#CCCN1N=C(c2ccccc2)CC1=O | . | -0.5
CN1C(=O)/C(=C2\SC(N)=NC2=O)c2ccccc21 | -0.428 | 2.1
O=c1cc(CSc2nnc(Cn3nnc4ccccc43)o2)c2ccccc2[nH]1 | -0.686 | 1.7

A second format for some results above.
CN1C(=O)/C(=C2\SC(N)=NC2=O)c2ccccc21
  KSHV LANA nucl: -0.428; BasE inh: 2.1

NNC(=O)COc1ccc2oc3c(c2c1)CCCC3
  KSHV LANA nucl: .; BasE inh: 1.0

CCCN(CCC)S(=O)(=O)c1ccc(C(=O)NN)cc1
  KSHV LANA nucl: .; BasE inh: 0.9

CC(C)(C)NC(N)=S
  KSHV LANA nucl: .; BasE inh: 2.6

Other entries follow.
SMILES | KSHV LANA nucl | BasE inh
CSc1nc(C)c2c(n1)CCCC2 | -0.351 | 1.4
CCc1ccc(C2C(C(=O)OC)C(=O)CC(C)(O)C2C(=O)OC)cc1 (stereo not given) | -0.305 | -0.3
c1ccc(C2(Cn3ccc4ccccc43)OCCO2)cc1 | . | 1.4
COc1ccc2oc(C(=O)OCC(=O)NC3(C#N)CCCC3)c(C)c2c1 | . | -0.3
CC(C)(C)NC(=O)CS(=O)(=O)c1ccccc1 | -0.272 | -0.9
CCCc1cc(C(=O)NC2CC2)cs1 | -0.853 | 0.5
CCOC1(C(F)(F)F)NC(=O)N(c2ccc(OC)cc2)C1=O (stereo not given) | 0.756 | -0.3
COc1ccc(OCC(=O)Nc2ccc3oc(-c4ccncc4)nc3c2)cc1 | 0.252 | -2.3
Brc1ccc(C2=CSC3=NCCN23)cc1 | -0.51 | -0.7
Cc1noc(Nc2ccc(NC(=O)Cc3cccs3)cc2)c1C | . | 0.1
CNC(=O)Cn1nc(C)c(S(=O)(=O)N2CCOCC2)c1C | . | 0.1
C#CCSc1nc2cc(Cl)ccc2o1 | . | -0.4
C=CC(=O)NC(=O)NC12CC3CC(CC(C3)C1)C2 | . | 1.4
O=C(Cc1coc2cc3c(cc12)CCC3)OCC(=O)N1CCCC1=O | . | -1.6
CN1CCN(c2nc(C34CC5CC(CC(C5)C3)C4)cs2)CC1 | . | 4.9
Cc1nnc(Nc2c(C)n(C)n(-c3ccccc3)c2=O)[nH]c1=O | -0.454 | -0.1
O=C(NC(Cc1cc(=O)[nH]c2ccccc12)C(=O)O)c1ccc(Cl)cc1 (stereo not given) | -0.336&1.21 | 0.8
Cc1ccc(OCCSc2nnc(N)s2)cc1 | . | 1.0
O=C(O)/C=C/C(=O)Nc1ccc(Br)c(Cl)c1 | -0.186 | 2.8
CCCCN(CC)c1nc(N)c2c(N)nc(SCC(=O)O)cc2c1C#N | . | 1.1
CC(C)(C)C(=O)/C=C1\SCC(=O)N1Cc1ccc(C#N)cc1 | . | 0.5
CCOc1ccc(S(=O)(=O)NCc2ccc3c(c2)OCO3)cc1 | 0.141 | 0.8
O=C(Cn1ccc2cc(S(=O)(=O)N3CCCC3)ccc21)NCc1ccccc1 | . | -2.5
CC(Sc1nnnn1-c1ccc(O)cc1)C(=O)c1ccccc1 (stereo not given) | . | 0.8
Cc1cc(C(=O)OCc2cc(Cl)cc3c2OCOC3)on1 | . | -3.0
COC(=O)c1ccc(Oc2nc(Nc3ccccc3F)nc(N3CCCCC3C)n2)cc1 (stereo not given) | . | 0.2
Cc1cc(OC(C)C)nc(-c2ccccc2O)n1 | -0.245 | 1.2
Cc1ccc2oc(=O)c(/C=C(\O)c3ccco3)nc2c1 | -0.939 | 12.7
Cc1ccc(-c2nnc(N3CCOCC3)c3ccccc23)cc1S(=O)(=O)N1CCN(C)CC1 | 0.508 | -3.3
CCn1nc(C)cc1-c1n[nH]c(=S)n1-c1ccccc1 | 0.585 | 0.1

Structures from the list above that contain a COOH group:
SMILES | KSHV LANA nucl | BasE inh
COc1ccc(-c2cc(C(=O)O)c(C)o2)cc1OC | -1.15 | 2.3
O=C(NC(Cc1cc(=O)[nH]c2ccccc12)C(=O)O)c1ccc(Cl)cc1 (stereo not given) | -0.336&1.21 | 0.8
O=C(O)/C=C/C(=O)Nc1ccc(Br)c(Cl)c1 | -0.186 | 2.8
CCCCN(CC)c1nc(N)c2c(N)nc(SCC(=O)O)cc2c1C#N | . | 1.1

Remaining list, next part:
SMILES | KSHV LANA nucl | BasE inh
COC(=O)c1ccccc1NC(=O)CN1Cc2ccccc2C1=O | -0.0285 | -0.2
Cc1nn(Cc2ccccc2Cl)c2sc(C(=O)NC(C)(C)C)cc12 | . | -1.0
COc1cc2c(C(=O)NCc3ccc4c(c3)OCO4)cn(C)c(=O)c2cc1OC | -0.188 | 1.9
Cc1cc(C(=O)O)ccc1-n1c(C)ccc1C | 0.204 | 3.4
Cc1noc(/C=C/c2cccs2)c1S(=O)(=O)N1CCC(C(=O)N2CCCCC2)CC1 | 2.6 | 0.2
Cc1nc2cc(NC(=O)c3ccc(N4C(=O)CCC4=O)cc3)ccc2s1 | . | -1.1
Cc1ccc(NC(=O)C2CC(=O)n3cnnc3N2)cc1Cl (stereo not given) | 0.989 | 0.9
O=C(NC1CCCCC1)NC1CCN(CC(=O)c2ccc(Cl)cc2)CC1 | -0.563 | 0.7
CS(=O)(=O)c1cccc(S(=O)(=O)N2CCSCC2)c1 | 2.31 | -2.1
Cc1ccc2nc(CSc3nnc(-c4ccccc4)o3)cc(=O)n2c1 | . | -0.7
CC1CCCCN1C(=O)Cn1cc(C(=O)C2CC2)c2ccccc21 (stereo not given) | 0.83 | 3.8
CCOC(=O)C1CCN(c2c(C(=O)c3ccccc3)cnc3ccc(OC)cc23)CC1 | -0.034 | -1.2
Cc1ccc(C=NN2CCN(Cc3ccccc3)CC2)cc1 | . | 2.5
COc1ccc(N2CC(NC(=O)N(Cc3ccccc3)C(C)C)CC2=O)cc1 (stereo not given) | -0.798 | 0.1
CCCn1c(N)c(C(=O)CSc2nc3ccccc3c(=O)n2CCC)c(=O)[nH]c1=O | . | 0.0
Cc1ccccc1-n1nc2c(c1NC(=O)/C=C\c1ccc3c(c1)OCO3)CS(=O)(=O)C2 | 0.116 | 1.7
Cc1cc(F)ccc1NCC(=O)Nc1ccc2c(c1)OCCO2 | . | -0.3
Cn1cnc2onc(C(=O)NC3CCCCC3)c2c1=O | -0.96 | 0.1
O=c1c2c([nH]c3ccccc13)C(=C1CCCC1)CC2 | -0.392 | -0.3
Cc1cc(C(F)(F)F)nn1Cc1ccc(C(=O)Nc2ncc(Br)s2)o1 | . | -3.7
COc1ccccc1Nc1nn(CN2CCCCC2C)c(=S)s1 (stereo not given) | . | 3.3
Cn1c(=O)c2[nH]c(NC3CCCC3)nc2n(C)c1=O | . | 1.6
CC(=O)NCC12CC3CC(CC(C3)C1)C2 | -0.543 | 0.6
CNc1nc(C)c(C(=O)OCc2ccccc2)s1 | -1.21 | -0.7
COCc1cc(C)nc(SCC(=O)NC2C3CC4CC(C3)CC2C4)c1C#N (stereo not given) | -0.765 | -0.8
Cc1ccc2[nH]c(=O)c(C3=NN(C(=O)CCC(=O)O)C(c4ccccc4)C3)c(-c3ccccc3)c2c1 (stereo not given) | . | -0.1
O=C(CC12CC3CC(CC(C3)C1)C2)N1CCCOC1 | 0.81 | -1.3
Cn1nc(C(=O)N2CCc3ccccc32)c2c1-c1ccccc1S(=O)(=O)C2 | 2.34 | 1.1
Nc1ccccc1S(N)(=O)=O | 0.203 | -0.7
Cc1n[nH]c(=O)c2noc(/C=C/c3ccc(C(F)(F)F)cc3)c12 | 0.318 | -1.5
O=C(COc1ccccc1)Nc1ccccc1 | -0.333 | 3.7
CCCCC/C=C\C\C=C/C=C/C=C/[C@@H](C)[C@@H](O)CCCC(=O)O | 0.322 | .
Cc1cc(Cl)ccc1OC(C)C(=O)N=Nc1c(O)n(CO)c2ccccc12 (stereo not given) | . | -0.3
COc1ccc(C(=O)OCC(=O)NCc2ccc3c(c2)OCO3)cc1S(=O)(=O)N1CCOCC1 | . | -1.7
O=C(/C=C/c1cc2c(cc1Br)OCO2)N1CCN(Cc2ccccc2)CC1 | -1.19 | .
Cc1cccc(C=Nc2ccc3[nH]ncc3c2)c1O | 0.392 | -2.6
Cc1cc(=O)[nH]c(SCc2ccc(C(=O)Nc3nccs3)cc2)n1 | 0.36 | 3.0
Cc1ccc(-c2cc(=O)n(-c3nc(C)cc(C)n3)[nH]2)cc1 | 0.348 | -0.5
Oc1ccc(Cl)cc1Cc1cc(Cl)ccc1O | 0.301 | -0.7
COC(=O)Nc1ccc(SCC(=O)c2ccccc2)cc1 | . | 0.9
COc1cccc(C(=O)NCCNc2nc3cc(C)cc(C)c3cc2C#N)c1 | 0.973 | -0.5
CCOC(=O)c1ccc2nc(C(F)(F)F)nc(NCCCN3CCCC3=O)c2c1 | -0.921 | -5.9
Cc1ccc(S(=O)(=O)c2nc(-c3ccccc3)oc2Sc2nc3ccccc3[nH]2)cc1 | -0.146 | -0.8
CCOC(=O)N1CCC(n2c(SCC(=O)Nc3ccc(C)c(Cl)c3)nc3ccccc3c2=O)CC1 | -0.199 | -1.1
COc1ccc2nc(Cl)c(CNC3CCCC3)cc2c1 | -0.944 | -1.3
Cc1sc(NC(=O)Nc2ccccc2)c(C(N)=O)c1C | -0.481 | -1.1
COc1cccc(CNc2ccc(N3CCCCC3)cc2)c1OC | 0.208 | 1.4
COc1ccc(NC(=O)Nc2ccc(N3CCOCC3)cc2)cc1 | -0.556 | 5.4
CSc1nnc(-c2csc(S(=O)(=O)Nc3cccc(Cl)c3)c2)n1C | -0.0575 | 1.7
O=c1[nH]cc(S(=O)(=O)NCc2ccccc2)c(=O)[nH]1 | -0.391 | -0.3
CCOc1ccc(NC(=S)N(C)Cc2nccn2C)cc1 | . | 1.5
O=S(=O)(c1ccccc1)n1nccc1-c1cc(-c2ccccc2)no1 | 0.435 | 1.3
CCC1CCCCN1CCCNC(=O)C1CCCN(S(=O)(=O)N2CC(C)CC(C)C2)C1 (stereo not given) | 2.09 | -3.1
Cc1nn(CC(=O)O)c(=N)s1 | . | 1.1
N#Cc1ccc(CSc2nc3ccc(Cl)cc3[nH]2)cc1 | . | -2.5
O=C1C(Nc2ccccc2)=CC(=O)c2ncccc21 | -0.0655 | 1.9
COc1ccc(-c2nnc(NC(=O)C3CC3)o2)cc1 | 0.0185 | -0.3
Nc1nnnn1N=Cc1ccc(-c2ccc3c(c2)COC3=O)o1 | . | -5.6
CC(Oc1cc(OC(C)C(=O)O)c2c(c1)oc(=O)c1ccccc12)C(=O)O (stereo not given) | . | 2.2
N#CC1=C(N)SC(N)=C(C#N)C1CCC1CCCCC1 | 9.49 | 15.5
